Screens (PubChem BioAssay)
gsp antag – gsp mutant antagonism; Potency, µM (titrated, usually from 76.9 µM), for the others: at the top dose activity change, negative = inhibition, most hits filed as inhibitors; gsp-mutant cells, cAMP HTRF, 30 min; control for the full effect not named in the record; 340,000 compounds, 0.4% hits; active = falling curve of any shape with a large fitted effect; inconclusive = falling curve, mostly with a smaller effect; inactive = flat or rising curve; cell line not stated here;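 also: intracellular cAMP measured with PDE inhibitor Ro 20-1724 present during compound exposure; potency is read from the fitted curve at half-maximal effect; % is scaled to controls: 0 for no effect and ±100 for the full control effect; nearly all actives have a fitted effect of over 65% in size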
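Cells, 2000/well, grown 16–24 h in DMEM 10% FBS with 0.5 mg/ml G418, then compounds plus […] (300 uM addition stock), 30 min at 37C. cAMP read by HTRF (cAMP-d2 and anti-cAMP antibody-K in lysis buffer) after 30 min RT.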
gsp ag – gsp mutant agonism | gsp mutant cells, cAMP HTRF, 30 min; control for the full effect not named in the record | Potency, µM (doses to about 76.9 µM), inactives show top-dose activation (cAMP increase), most hits filed as activators | 340,000 compounds, 0.13% hits; active = well fitted activation curve with a large enough effect; inconclusive = small, poorly fitted or top-dose-only effect, or another doubt; inactive = no such curve, though single readings can be large or run the other way; cell line not stated here;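 also: phosphodiesterase inhibitor Ro 20-1724 added with compounds to block cAMP breakdown; potency is read from the fitted curve at half-maximal effect; nearly all actives have a fitted effect of over 60% in size; about a fifth of the inactives were tested at one dose only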
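Cells stably selected in G418 were plated at 2000/well, grown 16-24 hr, then given compounds in DMSO with the PDE inhibitor […] (300 uM solution added) for 30 min at 37C; cAMP was read by HTRF.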
ClpP mod – qHTS Assay for Activators of ClpP; AID 651965, 2013; ATP-dependent Clp protease proteolytic subunit (Bacillus subtilis (strain 168)), P80244; Potency, µM (doses to about 57.5 µM), for the others: top-dose activity change, negative = active; 340,000 compounds, 1.9% hits; purified B. subtilis ClpP, FRET peptide cleavage, 20 min; active = well fitted falling curve with a large enough effect; inconclusive = small, poorly fitted or top-dose-only effect; inactive = no such curve, though single readings can be large or run the other way; also: potency is read from the fitted curve at half-maximal effect; the source files actives as falling curves though it sought activators and does not explain the sign; nearly all actives have a fitted effect of over 65% in size; many hits overshoot -100%
Target sequence (P80244 whole entry, looked up): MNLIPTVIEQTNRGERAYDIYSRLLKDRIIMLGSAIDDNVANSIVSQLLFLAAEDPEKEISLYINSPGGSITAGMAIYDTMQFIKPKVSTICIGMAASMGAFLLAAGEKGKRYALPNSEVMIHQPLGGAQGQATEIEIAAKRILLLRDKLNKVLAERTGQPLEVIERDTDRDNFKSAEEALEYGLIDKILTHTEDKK
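Purified B. subtilis ClpP, 10 microg/mL final in Tris/HCl pH8 with KCl, BSA, glycerol and Tween-20, cleaved an Abz/nitrotyrosine-quenched decapeptide. Fluorescence (ex 320, em 430) was read at 0 and 20 min at room temperature. Delta was normalized to 5.8 microM ADEP and DMSO/no-enzyme controls.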
CtBP-E1A blk – blocks the CtBP interaction with E1A. AlphaScreen GST-E1A/His-CtBP binding, 1536-well; stronger effect = lower value; control for the full effect not named in the record. activity change, % (test concentration not listed). 340,000 compounds, 0.49% hits. AID 651724; in the data active means activity change below about -65%; inconclusive means about -30% to -65%; inactive means above about -30%; also: % is scaled to controls: 0 for no effect and ±100 for the full control effect
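Homogeneous bead-based format: GST-tagged E1A captured on glutathione donor beads, His-tagged CtBP on nickel acceptor beads; compounds precede bead addition by 2 h at 37 °C.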
Menin-MLL FL inh – displaces fluorescein MLL peptide from human menin; AID 1766; 290,000 tested, under 10 active; FP activity change, % at 61.4 µM; Fluorescence polarization, fluorescein-MLL peptide displacement from menin; inconclusive = falling polarisation curve, or a change in total fluorescence; inactive = total fluorescence flat and polarisation flat or rising; no compound was filed as active; the % refers to the polarisation; negative = inhibition;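 also: % of control where 0% means no effect; inhibitors lower the polarisation; unlabelled MLL peptide was the positive control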
Sfp PPTase inh – inhibitors of Bacillus subtilis Sfp phosphopantetheinyl transferase; Biochemical Sfp PPTase activity, qHTS; Potency, µM, inactives show max response, negative = inhibition, hits mostly inhibitors; 310,000 compounds, 3.5% hits; AID 1490; active = well fitted inhibition curve with a large enough effect; inconclusive = small, poorly fitted or top-dose-only effect, or another doubt; inactive = no such curve, though single readings can be large or run the other way;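 also: the enzyme is Sfp with the accession as filed and its product quenches rhodamine fluorescence; potency is read from the fitted curve at half-maximal effect; 0% = enzyme reaction without inhibitor and -100% = no enzyme wells; top concentration of the series not given in the record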
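Compounds were incubated with enzyme (final 15 nM) for 15 min at room temperature before substrate addition started the reaction. Fluorescence at 525 nm excitation, 598 nm emission was recorded immediately and after 30 minutes.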
TRPV1 PAM – human TRPV1 potentiation. Q8NER1. TRPV1-expressing cells, Fluo-8 calcium influx, capsaicin EC20 potentiation; host cell line not named in the record; control for the full effect not named in the record. potentiation, % at 8.33 µM. 320,000 compounds, 0.02% hits; active means potentiation above 80%; inconclusive means 30% to 80%; inactive means below 30%; also: 0% is about no effect
Target sequence (Q8NER1 whole entry, looked up): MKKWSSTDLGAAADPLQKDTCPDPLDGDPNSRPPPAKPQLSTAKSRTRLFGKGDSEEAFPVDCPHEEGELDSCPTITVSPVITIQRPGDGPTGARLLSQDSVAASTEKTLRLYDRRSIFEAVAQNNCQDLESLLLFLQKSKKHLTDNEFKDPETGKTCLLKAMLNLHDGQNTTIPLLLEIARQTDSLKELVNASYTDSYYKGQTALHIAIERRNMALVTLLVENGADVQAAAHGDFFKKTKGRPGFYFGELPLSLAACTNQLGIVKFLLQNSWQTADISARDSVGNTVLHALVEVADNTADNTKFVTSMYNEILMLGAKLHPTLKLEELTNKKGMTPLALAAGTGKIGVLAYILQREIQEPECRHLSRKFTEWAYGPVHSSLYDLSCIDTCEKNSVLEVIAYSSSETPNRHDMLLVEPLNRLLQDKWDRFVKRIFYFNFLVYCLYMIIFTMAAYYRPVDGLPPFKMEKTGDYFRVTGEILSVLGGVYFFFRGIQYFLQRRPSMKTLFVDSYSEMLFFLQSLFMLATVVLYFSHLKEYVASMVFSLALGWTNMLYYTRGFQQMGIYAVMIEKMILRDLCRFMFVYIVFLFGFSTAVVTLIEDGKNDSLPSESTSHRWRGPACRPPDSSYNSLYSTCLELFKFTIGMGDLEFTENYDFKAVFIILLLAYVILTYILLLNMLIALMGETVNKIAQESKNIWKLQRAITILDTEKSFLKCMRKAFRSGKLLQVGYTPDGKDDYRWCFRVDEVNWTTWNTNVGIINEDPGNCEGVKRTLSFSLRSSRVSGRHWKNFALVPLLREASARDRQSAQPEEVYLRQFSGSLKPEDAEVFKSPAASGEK
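Fluo-8 calcium influx in TRPV1-expressing cells, kinetic read (ex 480/em 520 nm). Compound added and read 3 min for agonist activity, followed by capsaicin at EC20 final and 2 min further read for enhancement.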
* marks the source's active call; other numbers are inactive results; ? = inconclusive; . = not tested or not shown; & = joins results of further samples; [ ] = another dose, or the depositor's remark.

SMILES	gsp antag	gsp ag	ClpP mod	CtBP-E1A blk	Menin-MLL FL inh	Sfp PPTase inh	TRPV1 PAM
OCCC1CN(Cc2ccc3c(c2)CCO3)CCN1C1CCCC1 (stereo not given)	0%	-2%	-2.1%	5	-0.4	15%	2
O=C(Nc1cccc(Br)c1)c1cc(S(=O)(=O)N2CCOCC2)cs1	2%	-11%[15.4 µM]	1.4%	9	.	9%	-13
Cc1onc(C(=O)Nc2cccnc2Cl)c1[N+](=O)[O-]	-1%	-14%	.	9	2.7	-5%	-6
COc1ccc(CN(C)C2c3ccccc3-c3ccccc32)cc1	-3%	20%	-1.3%	-1	4.4	5%	20
Cc1cccc(-c2noc(-c3ccoc3C)n2)c1	-8%	-32%[inhibitor]	-0.4%	.	0.0	4%	4
COc1ccccc1-c1ccc(/C=C2\C=CC(=O)O2)o1	-8%	9%[15.4 µM]	.	57	?	?	4
O=c1[nH]c2cc3c(cc2cc1C(c1nnnn1C1CCCC1)N1CCSCC1)OCCO3 (stereo not given)	7%	8%	?	-13	6.6	-10%	-10
CC(C)Oc1ccc(CNC(=O)CCCN2C(=O)C(c3ccccc3)Oc3cccnc32)cc1 (stereo not given)	18%	17%	-1.9%	6	-1.8	11%	-1
Cn1c(SCC(O)c2ccccc2)nnc1-c1ccc2ccccc2c1 (stereo not given)	-23%	0%	-14%	.	-5.4	1%	.
COc1ccccc1N(C(=O)NCc1ccccc1)C1=NCC(C)S1 (stereo not given)	-18%	-23%	-3.0%	7	7.3	-2%	-32
COc1ccc(N2CCn3c2nc2c3c(=O)n(CCCc3ccccc3)c(=O)n2C)cc1	.	.	.	.	0.1	-11%	-9
C=CCN(C(=O)CCC(=O)Nc1cc(C)on1)C(C(=O)NC(C)(C)C)c1ccc(OC)cc1 (stereo not given)	-20%	17%[15.4 µM]	-0.8%	-6	-0.6	15%	23
COC(=O)C1C2CCC(C2)C1C(=O)OCC(=O)c1ccccc1 (stereo not given)	4%	6%	0.6%	8	-0.2	1%	27
COc1ccc(NC(=O)Nc2ccc3c(c2)CCC3)cc1OC	-20%	-2%	1.6%	.	-3.6	-11%	-17
CC(=O)c1ccc(Nc2nc(NCCO)nc(OC(C(F)(F)F)C(F)(F)F)n2)cc1	12%	29%	0.6%	-2	2.9	0%	-21
CCOc1ccc2nc(SCC(=O)NC3CCCc4ccccc43)sc2c1 (stereo not given)	-19%	10%[15.4 µM]	-2.0%	-17	-3.2	9%	-7
O=C(NC1CCCCCC1)C1CC(=O)N(Cc2ccccc2)C1 (stereo not given)	15%	-1%	1.8%	-3	0.0	4%	-1
O=C1CN(C(=O)COc2c(F)c(F)cc(F)c2F)c2ccccc2N1	6%	1%	-1.0%	2	.	15%	1
CCC(=O)Nc1c2c(nc3c1CCC3)CCCC2	12%	-11%	0.1%	5	0.3	7%	5
Cn1c(SCc2ccccc2Br)nc2ccccc2c1=O	9%	-11%	-6.8%	.	4.3	-14%	2
CCN(CC)C(=O)C1CCN(Cc2ccc(OCc3ccccc3)c(OC)c2)CC1	7%	8%	11%	1	1.1	-6%	3
COc1cc2c(c3ccccc13)CCCC2=O	-10%	-25%	28µM*	6	.	.	.
O=C(/C=C/c1ccc(Cl)cc1)Nc1ccc(N2CCOCC2)cc1	3%	-6%[15.4 µM]	0.4%	-2	1.6	-1%	-19
Cc1cc(NC(=O)COC(=O)COc2ccc3c4c(c(=O)oc3c2)CCC4)no1	.	-6%[15.4 µM]	.	-11	-3.1	16%	10
NC(=O)C1CCN(CCS(=O)(=O)c2ccc(Cl)cc2)CC1	6%	19%	-1.6%	.	-1.4	1%	-1

Further entries.
SMILES	gsp antag	gsp ag	ClpP mod	CtBP-E1A blk	Menin-MLL FL inh	Sfp PPTase inh	TRPV1 PAM
CC(C)(C)c1ccc(C(=S)N2CCN(c3ccccc3)CC2)cc1	14%	26%	.	-17	3.8	50µM*	25
CC(C)(C)C1CCC(=O)N(CCSc2ccccc2)CC1 (stereo not given)	4%	.	-1.5%&-1.2%	-7	4.3	8%	-13
CCN1CC=C2C(C1)C(c1ccc(Cl)s1)C(C#N)=C(N)C2(C#N)C#N (stereo not given)	?	-11%	-4.2%	-5	?	-6%	-8
COc1cccc(C(=O)N2CCN(Cc3nc(-c4ccoc4)oc3C)CC2)c1	.	-5%	-0.4%	6	.	.	.
CC12CCC(C(=O)Nc3ccccc3)(C/C1=N\O)C2(C)C (stereo not given)	8%	?	1.1%	-11	0.1	12%	12
O=[N+]([O-])c1ccc(NC2CCCC2)cc1	-12%	-3%	-2.9%	1	0.0	4%	0
Cc1ccc(CN2CCN(Cc3nc(C(C)C)cs3)CC2CCO)cc1 (stereo not given)	8%	2%	-0.4%	.	-1.1	0%	7
Oc1ccccc1N1CCN(c2ncnc3sc(-c4ccccc4)cc23)CC1	-18%	?	-1.7%	-4	-3.0	-1%	2
O=C(O)c1cccc2c1C(=O)c1ccc(-c3ccc(F)cc3F)cc1S2(=O)=O	7%	-44%[inhibitor]	-12%	.	.	.	9
Cc1cccc(NC(=O)Nc2cccnc2)c1C	9%	-19%	-1.3%	2	.	22%	-10
Cc1c(NC(=O)COc2c(F)c(F)c(F)c(F)c2F)c(=O)n(-c2ccccc2)n1C	11%	0%[15.4 µM]	.	-1	-4.5	12%	8
Cc1ccnn1-c1ccc(C(=O)NCc2ccccc2CN2CCOCC2)cc1	-2%	12%	.	-1	.	.	.
COCCCNC(=O)c1cccc(NC(=O)c2ccccc2)c1	0%	-34%[inhibitor]	-10%	7	6.8	14%	-8
O=C(N/N=C/c1ccoc1)c1cccc(OC(F)(F)C(F)F)c1	-4%	-23%	0.5%	.	.	.	.
O=C(COc1ccc(Cl)cc1)N/N=C/CCc1ccccc1	6%	-46%[inhibitor]	-1.0%	-4	1.0	-7%	-1
COc1cccc(-c2nc3ccccc3c(=O)o2)c1	?	-6%	-8.5%	-9	2.1	27%	6
CC(C)(C)c1nnc(NS(=O)(=O)c2ccc(F)cc2)s1	-11%	6%	.	3	.	.	.
Cc1cc(Cl)ccc1OCC(=O)NNC(=O)C1CCCO1 (stereo not given)	6%	2%[15.4 µM]	.	-9	-0.2	10%	26
NC(=O)CN1C(=O)NC2(CCCc3ccccc32)C1=O (stereo not given)	2%	-14%	-0.6%	5	.	19%	-3
CC1CN(S(=O)(=O)c2ccc(C(=O)N3c4ccccc4CC3C)cc2)CC(C)O1 (stereo not given)	-9%	-25%	0.9%	2	.	.	25
Cc1cc(C)n2nc(SCC(=O)N(C)C3CCCCC3)nc2n1	7%	22%	-2.2%	15	.	.	0
O=C(/C=C/c1ccco1)Nc1cccc(S(=O)(=O)N2CCOCC2)c1	3%	1%	-2.9%	-14	1.3	-14%	-20
Nn1c(SCC(=O)Nc2ccc(OC(F)F)cc2)nnc1-c1ccco1	8%	-72%[inhibitor]	-1.9%	-9	.	.	7
CCOc1ccc(NC(=O)CCC(=O)NNC(=O)COc2ccc(C)cc2)cc1	9%	-26%[15.4 µM]	.	.	1.0	17%	2
COc1ccc(C2(C(=O)Nc3ccccc3)CCOCC2)cc1	13%	9%	1.6%	-2	-0.5	26%	7

The results go on.
SMILES	gsp antag	gsp ag	ClpP mod	CtBP-E1A blk	Menin-MLL FL inh	Sfp PPTase inh	TRPV1 PAM
COc1ccc(C2CC(c3ccccc3)=NN2C(=O)CN2N=NC3C(=O)N(c4cccc(F)c4)C(=O)C32)cc1 (stereo not given)	-6%	-1%	?	-2	6.8	11%	-17
CC(C)N(C)C(=O)CCc1nnc(CCc2c[nH]c3ccccc23)o1	7%	5%	.	4	-4.7	25%	6
COc1ccc(C(=O)N2CCN=C2SC)cc1OC	10%	-32%[inhibitor]	-2.7%	3	0.2	-16%	9
CC1C2C(C)N(C)C(=O)N(C)C2N(C)C(=O)N1C (stereo not given)	11%	-9%	-1.8%	0	?	16%	2
Cc1sc2nc(CC(=O)N3CCCC3)[nH]c(=O)c2c1C	-9%	-15%	0.5%	.	3.2	?	13
O=C(Cc1ccc(NC(=O)C2CCCN(C(=O)C3CCCCC3)C2)cc1)Nc1cccc(C(=O)N2CCCC2)c1 (stereo not given)	-11%	.	-1.9%	-21	.	.	.
CCc1cccc2c(C(=O)CCl)c[nH]c12	-7%	17%	.	2	4.4	10%	-2
CC(C)(C)NC(=O)C(c1ccccc1)N(C(=O)CNC(=O)c1cccs1)c1cccnc1 (stereo not given)	7%	-13%	.	3	1.1	10%	7
CCC(=O)Nc1ccc(NC(=O)CN2CCCC(C)C2)c(Cl)c1 (stereo not given)	-4%	18%	-20%	2	0.5	0%	-25
Cc1cccc(OCc2occc2C(=O)Nc2cccc(-n3cnnn3)c2)c1	-21%	7%	1.0%	0	.	6%	-13
Cc1ccc(SCCOCCN2CCc3ccccc3C2)cc1	3%	5%	-4.2%	.	3.6	-18%	8
C=C(C)Cn1c(Sc2nc3ccccc3[nH]2)nc2c1c(=O)[nH]c(=O)n2C	20%	5%	-1.2%	-2	-0.2	-19%	-6
C=CCn1c(SCC(=O)Nc2ncc(Cc3cc(Cl)ccc3Cl)s2)nnc1-c1ccncc1	6%	-21%	0.2%	3	4.1	19%	-7
O=C(c1ccncc1)N1CCN(C(=O)c2cccc3ccccc23)CC1	22%	-1%	14µM*	1	0.1	10%	1
Cc1cccc(C)c1NC(=O)COC(=O)c1ccccc1O	23%	-7%[15.4 µM]	.	-9	-1.1	-13%	-8
COc1ccccc1S(=O)(=O)Nc1cccc(S(=O)(=O)N2CCCC2)c1	1%	10%	.	-9	.	.	.
CCc1cccc(C)c1NC(=O)COC(=O)CC1CCCC1	-17%	-2%[15.4 µM]	0.7%	11	.	.	-14
